Rango-impB inh: prevents formation of the Rango-importin beta complex | Q14974 | Rango CFP/YFP FRET sensor + importin beta, 45 min | Potency, µM (doses to about 92.2 µM), for the others: at the top dose inhibition of complex formation | actives 0.031% (n = 340,000) | AID 540263; active = rising FRET ratio curve, often small or poorly fitted; inconclusive = mostly compound fluorescence or quenching in the first reads; inactive = flat curves in all reads;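 note: potency is the fitted concentration of half-maximal effect; 0% = DMSO wells and 100% = buffer wells lacking importin beta; nearly all actives have a fitted effect of over 15% in size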
Target sequence (Q14974 whole entry, looked up): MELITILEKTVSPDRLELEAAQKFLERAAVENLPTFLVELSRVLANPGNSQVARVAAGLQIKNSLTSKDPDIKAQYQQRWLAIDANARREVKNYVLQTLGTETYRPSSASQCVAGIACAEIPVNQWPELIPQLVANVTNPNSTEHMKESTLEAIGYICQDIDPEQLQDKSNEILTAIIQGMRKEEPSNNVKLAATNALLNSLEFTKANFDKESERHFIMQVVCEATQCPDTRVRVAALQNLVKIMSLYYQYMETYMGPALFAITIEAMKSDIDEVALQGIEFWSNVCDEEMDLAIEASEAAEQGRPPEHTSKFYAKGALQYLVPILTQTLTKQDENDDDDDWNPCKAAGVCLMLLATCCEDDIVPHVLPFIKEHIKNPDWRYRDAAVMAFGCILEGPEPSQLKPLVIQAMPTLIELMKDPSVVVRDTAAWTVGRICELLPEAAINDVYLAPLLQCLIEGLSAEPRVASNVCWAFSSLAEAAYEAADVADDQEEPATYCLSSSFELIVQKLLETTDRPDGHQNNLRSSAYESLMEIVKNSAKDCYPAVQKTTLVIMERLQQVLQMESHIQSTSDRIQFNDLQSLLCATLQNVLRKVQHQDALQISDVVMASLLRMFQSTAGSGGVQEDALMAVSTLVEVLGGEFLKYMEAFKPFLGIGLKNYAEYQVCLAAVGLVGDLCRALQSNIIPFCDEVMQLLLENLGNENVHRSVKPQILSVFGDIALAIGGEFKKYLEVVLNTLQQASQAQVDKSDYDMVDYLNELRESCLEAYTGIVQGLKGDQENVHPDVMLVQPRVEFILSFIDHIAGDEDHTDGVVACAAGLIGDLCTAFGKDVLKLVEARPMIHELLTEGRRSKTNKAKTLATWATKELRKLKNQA
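Inhibition scored from the CFP 486 nm/YFP 530 nm FRET ratio 45 min after adding 0.125 microM importin beta to 50 nM Rango biosensor preincubated 5 min with compound (room temperature, PBS with DTT, Tween-20, BSA). No-importin wells as positive control.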
GLA inh pH 4.5: alpha-galactosidase A (human) inhibition, pH 4.5 | purified enzyme, 4-MU-alpha-Gal fluorescence, pH 4.5 | activity change, negative = inhibition, % at 105 µM | 230,000 tested, under 10 active | AID 1467; inconclusive = small, poorly fitted or top-dose-only inhibition, or a rising curve; inactive = flat fitted curve, though single readings scatter; no compound was filed as active;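 note: 0% = full activity with enzyme and -100% = basal without enzyme; dose as in the result columns while the protocol names 77 µM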
miR-21 FLuc: raises the signal of a miR-21 reporter. Potency, µM (top dose mostly 38.3 µM), for inactives: at the top dose reporter change, positive = more light. 340,000 tested, under 10 active. HeLa miR-21 FLuc reporter, luciferase, 48 h. AID 2288; active = well fitted rising curve with a large enough effect; inconclusive = small, poorly fitted or top-dose-only effect; inactive = no such curve, though single readings can be large or run the other way;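 note: % of control where 0% means no effect; miR-21 action dims this reporter so a rising signal means less miR-21 action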
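HeLa cells endogenously expressing miR-21, stably carrying CMV-driven firefly luciferase with a downstream miR-21 binding site, 2000 cells/well. Titrations up to approximately 40 uM, 48 hours; luciferase luminescence read.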
Rango release inh: prevents RanGTP from dissociating the Rango-importin beta complex | Potency, µM (doses to about 46.1 µM), inactives show at the top dose activity change, negative = inhibition | actives 0.071% (n = 340,000) | Biochemical FRET Rango-importin beta, RanGTP-induced dissociation | AID 540253; active means falling FRET ratio curve, often poorly fitted, with flat reads before Ran was added; inconclusive means other falling curves, or compound fluorescence or quenching; inactive means flat or rising ratio curve;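 note: potency is the fitted concentration of half-maximal effect; % of control where 0% means no effect; nearly all actives have a fitted effect of over 45% in size; -100% = wells without RanGTP and RCC1; the record marks most hits as doubtful in a second field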
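Quantitative HTS using a FRET biosensor: 0.1 uM Rango, 0.25 uM importin beta, 0.6 uM Ran, 2 mM GTP, 0.2 uM RCC1 final, PBS with DTT, Tween-20 and BSA. Post-read taken 45 min after Ran addition.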
Active calls of the source: *; ? = inconclusive; . = no result given; & = joins results of further samples. This is a subset. The share of hits here may be higher or lower than overall.

SMILES | Rango-impB inh | GLA inh pH 4.5 | miR-21 FLuc | Rango release inh
O=C(Nc1cccn2ncnc12)c1ccc(Cl)cc1Cl | -0.1% | 0.3 | -9.2% | 10.2%
COc1ccc(N2CCN(C(=O)CC3NC4CCCCC4NC3=O)CC2)cc1 (stereo not drawn) | 0.8% | -2.4 | -3.8% | -9.7%
COC(=O)c1ccccc1NC(=O)CN(Cc1ccc(Cl)cc1)S(C)(=O)=O | 0.2% | 0.0 | -1.2% | 22.0%
COc1ccccc1-n1cc(CN2CCN(C3CCCCC3)C(CCO)C2)cn1 (stereo not drawn) | -0.8% | 3.3 | -3.3% | 0.7%
CC(C)[C@H](NC(=O)c1ccccc1Cl)C(=O)OCc1cc(=O)n2cc(Br)ccc2n1 | -1.0% | 12.0 | -0.2% | -16.6%
COc1ccc(-n2c(SC3CCOC3=O)nc3ccccc32)cc1 (stereo not drawn) | 5.0% | -2.0 | -4.5% | 17.2%
Cc1ccc(-n2ncc3c(N4CCCC4)ncnc32)c(C)c1 | -0.1% | . | -49.1% | 0.6%
Cc1cc(C(=O)N/N=C/c2cc(Cl)cc([N+](=O)[O-])c2O)c2ccccc2n1 | -1.2% | -9.4 | ? | -10.7%
CCSc1nnc(NC(=O)C(CC)Oc2ccccc2)s1 (stereo not drawn) | 7.3% | 2.9 | 1.3% | 8.2%
NC(=O)CN1C(=O)NC(c2ccccc2)(c2ccccc2)C1=O | -0.6% | . | 6.0% | -0.9%
Cc1ccc(NC(=S)C2=C(O)c3sccc3N(C)S2(=O)=O)cc1 | ? | 4.9 | -5.1% | -11.0%
COc1ccc(CCNC(=O)CN(C)S(=O)(=O)c2cccc3nsnc23)cc1OC | -5.5% | -4.6 | -4.2% | -1.4%
CCCNC(=O)c1ccc(Cn2cc(-c3ccc(OC)cc3)nc2C(C)N)cc1 (stereo not drawn) | -1.1% | . | . | 1.1%
Cc1cc(OCC(=O)NNC(=O)c2cccnc2)cc(C)c1Cl | -1.1% | . | -0.1% | 0.4%
Cc1ccc(S(=O)(=O)CCC(=O)OCC(=O)Nc2cc(F)ccc2C)cc1 | 3.0% | . | . | 2.7%
CCOC(=O)c1cc(-c2ccccc2)nn1Cc1cc(CC)no1 | 0.4% | . | . | 5.5%
C=CCN(CC=C)C(=O)Cn1cnc([N+](=O)[O-])n1 | -0.1% | 4.0 | -4.0% | -6.8%
COC(=O)C1=C(C)N=C2SCCC(=O)N2C1/C=C/c1ccccc1 (stereo not drawn) | -0.8% | -4.6 | -5.7% | 1.1%
Cc1ccc(-n2[nH]c(C)c(/C=N/N3C(=O)c4cccc5cccc(c45)C3=O)c2=O)cc1 | 1.2% | -1.4 | -1.4% | -13.6%
Cc1ccc(Cn2c(/C=C/c3ccco3)nc3ccccc32)cc1 | 5.6% | 7.1 | -56.0% | ?
O=C(Nc1cccc(-n2cnnn2)c1)c1cc(Cl)nc(Cl)c1 | 0.5% | . | 8.4% | 4.2%
Cc1ccc2[nH]c(C(=O)O)c(NC(=O)CN3CCN(c4cccc(C)c4C)CC3)c2c1 | -3.4% | -14.2 | -1.7% | -7.2%
CCCOc1ccc(NC(=O)Cc2ccc(S(=O)(=O)N3CCOCC3)s2)cc1OCCC | -1.8% | . | . | 15.0%
CCOC(=O)c1cc2c(nc1N)CC(C)(CC)OC2 (stereo not drawn) | -8.8% | . | -67.6% | 5.0%
CCc1nccn1S(=O)(=O)c1ccc(Br)cc1Br | 1.1% | -3.0 | -3.5% | 6.6%

Shown in CSV form: entries from further up.
SMILES,Rango-impB inh,GLA inh pH 4.5,miR-21 FLuc,Rango release inh
Cc1ccc(S(=O)(=O)CCC(=O)OCC(=O)Nc2cc(F)ccc2C)cc1,3.0%,.,.,2.7%
CCOC(=O)c1cc(-c2ccccc2)nn1Cc1cc(CC)no1,0.4%,.,.,5.5%

One compound at a time (already shown).
`COC(=O)C1=C(C)N=C2SCCC(=O)N2C1/C=C/c1ccccc1` (stereo not drawn) in the list: Rango-impB inh: -0.8%; GLA inh pH 4.5: -4.6; miR-21 FLuc: -5.7%; Rango release inh: 1.1%
`Cc1ccc(S(=O)(=O)CCC(=O)OCC(=O)Nc2cc(F)ccc2C)cc1` in the list: Rango-impB inh: 3.0%; GLA inh pH 4.5: .; miR-21 FLuc: .; Rango release inh: 2.7%
`COc1ccc(-n2c(SC3CCOC3=O)nc3ccccc32)cc1` (stereo not drawn) in the list: Rango-impB inh: 5.0%; GLA inh pH 4.5: -2.0; miR-21 FLuc: -4.5%; Rango release inh: 17.2%

3 compounds from above, arranged by length of the SMILES, rising.
SMILES | Rango-impB inh | GLA inh pH 4.5 | miR-21 FLuc | Rango release inh
COc1ccc(-n2c(SC3CCOC3=O)nc3ccccc32)cc1 (stereo not drawn) | 5.0% | -2.0 | -4.5% | 17.2%
Cc1ccc(S(=O)(=O)CCC(=O)OCC(=O)Nc2cc(F)ccc2C)cc1 | 3.0% | . | . | 2.7%
Cc1ccc(-n2[nH]c(C)c(/C=N/N3C(=O)c4cccc5cccc(c45)C3=O)c2=O)cc1 | 1.2% | -1.4 | -1.4% | -13.6%

(list continues)
SMILES | Rango-impB inh | GLA inh pH 4.5 | miR-21 FLuc | Rango release inh
Cn1cc(C(=O)NCc2ccccc2F)cn1 | -0.2% | 5.7 | -1.0% | -10.5%
COCCn1c(SCCN2CCCCC2)nc2ccccc2c1=O | -0.1% | -9.6 | -7.4% | 0.3%
C[C@H](NC(=O)c1nc[nH]c1C(=O)N1CCN(C(=O)OC(C)(C)C)CC1)c1ccccc1 | -0.4% | . | . | -1.8%
CCOCCCn1c(=S)[nH]c2cc3c(cc2c1=O)OCO3 | -1.1% | 4.7 | -15.5% | 1.6%
CCC(=O)Nc1sc2c(c1C#N)CC(C)(C)NC2(C)C | 2.7% | 1.9 | -3.9% | -7.0%
N#CCCN(C(=O)COC(=O)CCc1nc2ccccc2c(=O)[nH]1)c1ccccc1F | 4.4% | . | . | -20.1%
Cc1ccc(S(=O)(=O)n2ccc3cccnc32)cc1 | 0.1% | -7.4 | -6.0% | -0.1%
COCCN(C(=O)C1=COCCO1)c1c(N)n(Cc2ccccc2)c(=O)[nH]c1=O | -3.3% | . | -0.7% | 5.6%
C=CCn1c(C#N)c(N)sc1=N | -5.8% | 0.2 | 6.3% | -3.2%
CCCCn1c(N)c(N(CCOC)C(=O)COC(=O)c2cc(CC)c(C)s2)c(=O)[nH]c1=O | 3.1% | . | . | 45.8%
O=S(=O)(c1ccc(Br)cc1)N1CCC2(CC1)OCCO2 | 0.2% | . | -1.8% | 0.0%
OCc1cc(C(O)CNCCCCCCOCCCCc2ccccc2)ccc1O (stereo not drawn) | 1.2% | -2.8&-8.9 | 13.3% | -17.5%
Cn1c([N+](=O)[O-])cnc1COC(N)=O | -0.5% | 2.8&-15.2 | 1.6% | 1.8%
CCc1ccc2nc(N(CCCN(C)C)C(=O)c3ccc(S(=O)(=O)N4CCCC4)cc3)sc2c1 | 4.7% | . | -0.3% | 0.8%
CN(C)S(=O)(=O)c1ccc(Cl)c(NC(=O)COC(=O)/C=C/c2ccco2)c1 | -1.9% | 5.8 | 3.3% | -11.0%
C[C@H](NS(=O)(=O)c1ccc2c(c1)OCCCO2)C(=O)N1CCN(c2ccc(F)cc2)CC1 | -0.3% | . | . | 0.2%
Cc1nccn1CC(=O)N/N=C/c1ccc(O)c(O)c1 | . | -1.7 | -17.6% | .
CCO[C@@H]1OC(C(=O)NCc2ccccc2)=C[C@H](c2csc3ccccc23)[C@H]1CCCO | 4.7% | -5.8 | 4.0% | -16.8%
CCc1ccc(N(CC(=O)O)S(=O)(=O)c2c(C)noc2C)cc1 | -0.7% | 6.9 | -7.8% | 29.7%
O=S(=O)(c1ccc(Cl)cc1)N1CCN(Cc2cccnc2)CC1 | 4.7% | . | 1.2% | -0.2%
O=C1NC[C@H](Cc2ccc(O)cc2)N(CCc2cccc3ccccc23)C1=O | 0.1% | 10.9 | -0.1% | -12.7%
COc1ccccc1C(=O)NC(=O)COC(=O)c1cccc(NC(C)=O)c1 | 0.0% | . | 0.4% | -1.7%
CC(=O)C1=C(C)NC(=O)NC1c1ccc2c(c1)OCO2 (stereo not drawn) | ? | . | 0.4% | 2.2%
Cc1nc2c(-c3ccc(F)cc3)c(C)nn2c(C)c1CCC(=O)N1CCN(c2ccc(F)cc2)CC1 | 1.2% | -7.6 | 10.6%&-0.4% | -4.3%
O=C1CCCN1CCCNS(=O)(=O)c1ccc(Cl)c(C(=O)N2CCOCC2)c1 | -1.9% | 0.0 | -2.1% | -5.0%
(next part)
SMILES | Rango-impB inh | GLA inh pH 4.5 | miR-21 FLuc | Rango release inh
CCN(CC)CCN(C(=O)c1ccc2ccccc2c1)c1nc2cc3c(cc2s1)OCO3 | 0.4% | . | -7.9% | -15.9%
CCN(CC(=O)NCc1ccccc1Cl)CC(=O)Nc1c(F)cccc1F | -3.3% | -2.5 | -2.4% | 22.4%
CCOC(=O)[C@@H]1[C@H]2COc3cc(OC)ccc3[C@H]2N2C(=O)N(c3ccc(C(F)(F)F)cc3)C(=O)[C@@]12C | ? | . | 2.2% | 2.3%
NC(=O)Cc1nc(-c2ccc([N+](=O)[O-])cc2)cs1 | 1.3% | -7.5 | -16.3% | 2.4%
O=C(COc1ccccc1Cl)NCc1nc(-c2ccccc2)no1 | -1.8% | . | -5.9% | -20.9%
CC1CCc2sc3ncn4nc(C(=O)NCc5ccco5)nc4c3c2C1 (stereo not drawn) | -3.8% | -3.7 | -11.8% | 2.8%
Cc1ccccc1NC(=O)CCCNC(=O)c1ccc(Cl)cc1 | 4.7% | . | 0.7% | 27.7%
CC(C)(C)C(=O)Cn1ncc(Cl)c(Cl)c1=O | 0.7% | 8.7 | ? | 4.0%
Cc1cccc(NC(=O)C[n+]2ccc(N(C)C)cc2)c1 | 2.6% | . | 5.4% | 16.8%
CS(=O)(=O)N1CCN(c2cccc(Cl)n2)CC1 | 2.4% | -2.6 | 1.7% | -8.2%
CCOc1ccc(CCNC(=O)COn2nnc3ccc(S(=O)(=O)N4CCOCC4)cc32)cc1OCC | -0.1% | . | . | -15.2%
COC(=O)CSc1n[nH]c(-c2cccnc2)n1 | -0.8% | -2.8 | 0.1% | 4.5%
Cc1ccc2[nH]c3nc(NN)nnc3c2c1 | 0.7% | . | -19.2% | 10.8%
CN1CCN(S(=O)(=O)c2ccc(NC(=O)c3cccc(S(=O)(=O)N4CCCC4)c3)cc2)CC1 | 0.2% | -0.5 | -6.4% | 2.0%
CCC(C)NCCOc1ccc(C)cc1[N+](=O)[O-] (stereo not drawn) | -5.0% | -6.6 | 2.0% | -20.9%
CCSCCOC(=O)C1=C(C)N(C)C(=O)NC1c1ccc2c(c1)OCO2 (stereo not drawn) | -0.4% | . | 2.4% | 4.6%
Cc1cc(S(=O)(=O)N2CCCCCC2)c(Cl)cc1Cl | 1.3% | -9.4 | 1.2% | -18.8%
O=C1CC(Cc2ccccc2)C(=O)N1c1ncccn1 (stereo not drawn) | -3.2% | -0.5 | -33.0% | 31.9%
O=C(O)c1cc(-c2cccnc2)nc2ccccc12 | -3.7% | -6.8 | 0.5% | -10.3%
COC(CNC(=O)c1cccc2c1C(=O)N(Cc1cccnc1)C2)OC | -0.1% | -7.2 | -0.7% | 12.8%
COc1ccc(N(CC(=O)N2CCCCCC2)S(=O)(=O)c2c(C)[nH]c(=O)[nH]c2=O)cc1 | -2.0% | -1.1 | -1.2% | -12.6%
